FGF22 binding: FGF22 (human) thermal shift binding. Q9HCT0. recombinant FGF22 thermal shift, SYPRO orange fluorescence; percent of sucrose octasulfate shift, DMSO zero. calls only at 9.99 µM. 340,000 compounds, 1.5% hits;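 active = melting point raised past a set limit in the mean and every replicate; inconclusive = no clear call; three in four hits are not shown here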
Target sequence (Q9HCT0 whole entry, looked up): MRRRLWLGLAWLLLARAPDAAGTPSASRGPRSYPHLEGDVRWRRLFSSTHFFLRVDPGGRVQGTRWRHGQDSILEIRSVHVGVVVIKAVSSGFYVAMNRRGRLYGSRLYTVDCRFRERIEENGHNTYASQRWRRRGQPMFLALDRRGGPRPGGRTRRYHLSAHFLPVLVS
T cruzi inh: blocks replication of Trypanosoma cruzi | T. cruzi beta-gal in NIH3T3, luminescence, 90 h | inhibition, % (no concentration beside the values) | 300,000 compounds, 1.4% hits;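 active = mean inhibition across valid replicates above about 55%, limit read from the data; inconclusive = mean below that limit but half or more replicates reach it; inactive = mean below it, under half of replicates reach it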;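 also: signal also drops with host cell toxicity which is not excluded here; 0% = plate median of DMSO wells and 100% = zero luminescence signal; higher percent means less beta-gal luminescence so fewer parasites; stock transfer was 50 nL into about 50 µL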
Beta cell apopt: beta cell apoptosis inhibition; INS-1E cytokine-induced death, ATP luminescence, 48 h; percent of positive-control rescue, neutral wells zero; protection from apoptosis, % (no concentration beside the values); 300,000 compounds, 0.8% hits; AID 435005;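 active = all replicates at 75% or more, or half of them and the mean; inconclusive = half reach 75% but not the mean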;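 also: 0% = cytokine-treated negative control wells and 100% = positive control rescue; higher means more ATP so stronger rescue from cytokine killing; wells of about 40 µL received 100 nL stock; the first replicate is given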
MLL AF4-AF9 inh: blocks AF4 peptide binding to human AF9; P42568; AlphaScreen, biotin-AF4 peptide binding to FLAG-AF9; inhibition, % at 10 µM; 350,000 compounds, 0.47% hits; AID 651704;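 active = every replicate reaching a set inhibition limit, whatever the replicate mean, cut at about 25% in these data; inconclusive = mean inhibition reaches that limit but some replicates miss it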;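 also: 0% = plate neutral control median and 100% = total signal loss; the record names both 10 and 1 µM as test concentration; the first replicate is given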
Target sequence (P42568 whole entry, looked up): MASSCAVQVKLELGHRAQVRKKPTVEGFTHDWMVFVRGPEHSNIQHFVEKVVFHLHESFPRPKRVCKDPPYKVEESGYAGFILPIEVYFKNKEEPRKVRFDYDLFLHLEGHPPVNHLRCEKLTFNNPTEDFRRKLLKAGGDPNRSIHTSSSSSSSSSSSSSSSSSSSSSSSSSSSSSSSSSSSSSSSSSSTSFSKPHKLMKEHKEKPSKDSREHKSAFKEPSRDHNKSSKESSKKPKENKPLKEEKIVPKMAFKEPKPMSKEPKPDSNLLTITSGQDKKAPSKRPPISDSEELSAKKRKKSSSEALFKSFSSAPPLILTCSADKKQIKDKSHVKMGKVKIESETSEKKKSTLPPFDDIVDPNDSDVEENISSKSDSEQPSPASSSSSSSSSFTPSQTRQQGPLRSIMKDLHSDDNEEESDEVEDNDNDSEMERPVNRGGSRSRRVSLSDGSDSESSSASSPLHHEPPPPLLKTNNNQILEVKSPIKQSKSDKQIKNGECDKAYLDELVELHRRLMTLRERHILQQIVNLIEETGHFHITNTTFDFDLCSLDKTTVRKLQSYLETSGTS
Calb FLC: C. albicans growth modulation with fluconazole; 300,000 compounds, 0.57% hits; growth inhibition, % (concentration not given with the values); AID 1979; C. albicans CaCi-2 (fluconazole-resistant clinical isolate) + fluconazole, Alamar Blue growth, 48 h;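 active = most replicates above 75%; inconclusive = exactly half above 75%; inactive = most below 75%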;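 also: all wells also contain fluconazole at 8 µg/ml as a sub-toxic cotreatment; 0% = median of DMSO wells and 100% = median of geldanamycin control wells; wells of about 8 µL received 7.5 nL stock; the first replicate is given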
ALR H2O2 inh: human ALR oxidase inhibition via reduced H2O2 | P55789 | purified ALR, DTT oxidation, H2O2 HRP-luminol luminescence | inhibition, % (test concentration not listed) | 290,000 compounds, 3.8% hits;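 active = mean and each replicate at 75% or more; inconclusive = only one of the two met; inactive = neither met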;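 also: stock transfer was 7.5 nL into about 7.5 µL; 0% = neutral wells and 100% = wells with inactivated enzyme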
Target sequence (P55789 whole entry, looked up): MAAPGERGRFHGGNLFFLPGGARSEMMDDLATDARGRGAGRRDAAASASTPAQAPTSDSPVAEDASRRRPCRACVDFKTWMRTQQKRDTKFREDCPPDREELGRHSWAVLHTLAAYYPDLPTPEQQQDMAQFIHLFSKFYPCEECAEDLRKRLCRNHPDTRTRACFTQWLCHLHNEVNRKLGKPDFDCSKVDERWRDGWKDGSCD
rRNA inh HTS: inhibits bacterial ribosomal RNA function over humanized ribosomes; E. coli WT GFP vs humanized-ribosome RFP mutants, fluorescence, 24 h; active compounds read low; DMSO median 0, no signal -100; GFP signal change (wild-type ribosome), % (test concentration not listed); 350,000 compounds, 1.6% hits;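 active = significant combined selectivity score with lowered wild-type GFP, culture density cut under 30%, mutant RFP and density less affected; inactive = any of these conditions unmet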; also: one replicate is shown; some compounds called inactive have numbers as strong as hits
RanGTP-Impb inh: disruptors of Ran-importin-beta complex formation – biochemical, FRET, CFP-Ran, YFP-importin-beta, homogeneous, primary screen | cell-free CFP-Ran/YFP-importin-beta FRET ratio | inhibition, % (no concentration beside the values) | 300,000 compounds, 1.1% hits | AID 2216;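 active = most replicates above 15%; inconclusive = exactly half above 15%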;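 also: 0% = DMSO wells and 100% = Ran loaded with GDP instead of GTP; wells of about 40 µL received 100 nL stock; the first replicate is given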
rRNA inh HTS OD600: further read-out of rRNA inh HTS, marked with its call; OD600 change, %; measured here: OD600 growth;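 optical density of the mix in the first replicate; 0 = DMSO median and -100 = no signal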
rRNA inh HTS RFP: second read-out of rRNA inh HTS, no call of its own (marks repeat the call); RFP signal change, %; measured here: RFP humanized mutant strains;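 first replicate; 0 = DMSO median and -100 = no signal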
Active calls of the source: *; i = inactive; ? = inconclusive; . = not tested or not shown. Some of the compounds tested (hit frequency here may not be typical).

SMILES	FGF22 binding	T cruzi inh	Beta cell apopt	MLL AF4-AF9 inh	Calb FLC	ALR H2O2 inh	rRNA inh HTS	rRNA inh HTS OD600	rRNA inh HTS RFP	RanGTP-Impb inh
CCOC(=O)c1sc(NC(=O)CSc2nnnn2-c2ccc(C)c(C)c2)nc1C	.	3.4	0.9	.	-0.4	-4.3	.	.	.	2.3
CC(CNC(=O)C1CCCN(S(=O)(=O)N2CCOCC2)C1)c1ccccc1 (stereo not drawn)	i	-17.6	-6.7	2.4	-8.4	-6.2	-1.2	-3.8	-0.1	2.9
COc1ccccc1NS(=O)(=O)c1cc2c(cc1C)NC(=O)CO2	i	-1.3	-4.6	-3.9	-5.3	.	-6.3	-8.6	-0.7	-5.1
Cc1cccc(OCc2nnc(SCC(=O)N(C(C)C)C(C)C)n2Cc2ccco2)c1C	.	13.8	-0.1	.	0.9	1.0	.	.	.	6.1
Cc1cc(C=O)c(C)n1-c1ccc2c(c1)OCO2	i	7.3	-8.0	4.8	-5.8	-41.9	2.7	-8.7	1.1	1.6
CCCOc1cc(C)nc(-c2ccccc2O)n1	.	3.5	-17.0	.	18.2	-4.1	.	.	.	4.4
O=C(NNc1ccc([N+](=O)[O-])cc1)C1CC1c1ccccc1 (stereo not drawn)	.	-16.3	12.8	.	-21.9	52.8	.	.	.	?
COc1ccc(S(=O)(=O)Nc2cccc(S(=O)(=O)N3CCCCCC3)c2)cc1	.	2.1	-1.9	.	1.8	-38.9	.	.	.	1.8
CCc1ccc(N2CC(C(=O)NC3=NCCS3)CC2=O)cc1 (stereo not drawn)	.	-6.8	-8.4	.	23.1	-5.2	.	.	.	2.2
CC(=O)Nc1nc2cccc([N+](=O)[O-])c2s1	i	-16.7	0.5	-0.7	5.1	-4.4	10.7	11.7	-5.7	-0.2
CCCC(=O)N1c2ccccc2C(=C2SC(C(=O)OC)=C(C(=O)OC)S2)C(=S)C1(C)C	.	10.0	26.3	.	-13.3	-3.0	.	.	.	-4.9
CC(C)OCCCNC(=S)N1CCC(C(=O)c2ccc(Cl)cc2)CC1	i	11.1	102.0*	-1.1	-5.2	.	-11.5	-19.9	-2.2	-2.8
O=C(O)c1cc(-c2cccnc2)nn1-c1ccccn1	.	-24.7	-3.6	.	-2.4	-0.5	.	.	.	-1.0
CN(CCCNC(=O)CSc1cc(=O)n(C)c2ccc(Cl)cc12)Cc1ccccc1	i	49.9	-2.0	3.3	-11.3	-2.1	10.5	0.7	9.5	-1.6
COC(=O)c1ccc2c(c1)N(Cc1ccccc1F)C(=O)c1ccccc1S2=O (stereo not drawn)	i	-5.9	-4.8	1.8	2.2	-1.8	-10.2	-28.2	-3.7	2.8
CCOc1ccccc1NC(=S)N1CCCc2ccccc21	i	-16.6	-2.6	4.2	-21.3	23.7	4.2	4.0	4.6	?
Cc1nc2c3ccccc3nc(NNC(=O)CCC(=O)NC(C)C)n2n1	.	-17.3	-4.5	.	9.8	15.7	.	.	.	5.5
Cc1c(NC(=O)C(C)OC(=O)COc2ccc(C#N)cc2)c(=O)n(-c2ccccc2)n1C (stereo not drawn)	i	-1.8	0.9	-0.9	-0.3	2.6	4.5	6.2	-0.9	-2.5
COc1cc(C)ccc1OCc1cc(C(=O)N2CCCCCCC2)no1	i	0.4	-3.8	0.1	-8.6	-5.6	-8.2	-13.2	-1.6	6.4
O=C(COC(=O)c1ccc(O)cc1)Nc1nccs1	i	-1.3	-2.2	?	4.4	-6.0	-6.5	-7.7	-1.6	0.7
CCOC(=O)c1cc(S(=O)(=O)N(C)Cc2ccccc2)cn1C	i	10.0	-5.1	-5.9	-1.5	-2.6	-11.6	-15.4	-0.4	-0.9
CCCc1cc(=O)[nH]c2nnc(SCC(=O)Nc3ccc(NC(C)=O)cc3)n12	i	-16.0	.	0.2	2.6	1.6	6.7	9.3	-0.1	0.4
CC(C)C[C@@H](CO)N1CCN(Cc2ccccc2)CCC1=O	.	-6.6	-2.0	.	6.5	-5.4	.	.	.	4.0
COc1ccccc1NC1=C(N2CCCCC2)C(=O)c2ccccc2C1=O	.	62.2*	101.8*	.	92.7*	-52.2	.	.	.	5.4
Cc1nc2ccc(S(=O)(=O)NCC(=O)N(C)Cc3ccccc3)cc2s1	i	3.2	-5.7	-2.8	7.0	98.9*	-4.7	7.8	-13.8	-0.2

Following part.
SMILES	FGF22 binding	T cruzi inh	Beta cell apopt	MLL AF4-AF9 inh	Calb FLC	ALR H2O2 inh	rRNA inh HTS	rRNA inh HTS OD600	rRNA inh HTS RFP	RanGTP-Impb inh
O=C1NC[C@H](c2ccccc2)N(CCc2cccc3ccccc23)C1=O	i	0.9	-3.6	0.5	-6.8	.	-20.1	-17.2	-5.1	3.8
CCCCCCn1nc(C(=O)N(CC(C)C)c2c(N)n(CCCC)c(=O)[nH]c2=O)c2ccccc2c1=O	i	25.9	-7.2	-5.9	34.3	-6.2	11.7	8.6	2.0	?
COC(=O)c1ccc(NC(=O)CN(c2ccc(C)cc2)S(=O)(=O)c2c(C)n[nH]c2C)cc1	.	4.6	3.2	.	0.7	2.6	.	.	.	-0.7
CC1CN(C(=O)c2cc([N+](=O)[O-])cc([N+](=O)[O-])c2)CC(C)O1 (stereo not drawn)	i	8.3	-5.2	-3.1	-15.2	-19.5	22.4	18.7	-2.2	1.2
O=C(O)c1ccccc1SCc1cn2ccccc2n1	.	-15.6	-2.7	.	4.1	0.6	.	.	.	-1.0
O=C(Cn1cnc2cc([N+](=O)[O-])ccc2c1=O)NCCc1ccc(F)cc1	i	44.4	-1.7	0.1	13.6	-0.9	5.6	2.8	-0.6	-0.1
Cn1c(=O)[nH]c(=O)c2c1nc(N1CCCC1)n2CC(O)COc1ccccc1 (stereo not drawn)	i	-13.6	.	-0.9	-2.0	94.6*	2.0	-1.1	-9.0	-1.7
COc1cc(C#Cc2c(-c3cncn3C)n(C)c3ccc(-c4ccc5cc[nH]c5c4)cc23)cc(OC)c1	i	.	8.1	7.8	.	2.7	0.1	2.9	14.1	.
CCN(CC(=O)Nc1ccc(C(=O)OC)cc1)Cc1ccccc1	i	4.3	-4.5	0.3	27.3	-11.5	6.6	8.3	-0.7	7.2
COc1ccc(NC(=O)N2CCn3c2nc2ccccc23)cc1	.	-9.0	-3.3	.	34.8	.	.	.	.	-2.2
CCCCNC(=S)Nc1ccc2[nH]c(=O)[nH]c2c1	i	-9.6	-0.2	-1.3	1.0	67.6	-0.9	14.0	-2.1	2.7
O=C(c1cn(-c2ccccc2)nc1-c1ccccc1)N1CCN(c2ccccn2)CC1	.	-1.2	5.9	2.2	-12.4	-6.9	-40.5	-67.9	-4.7	-1.8
C=CCOC(=O)C(C#N)c1nc2ccccc2nc1N1CCC(C(=O)OCC)CC1 (stereo not drawn)	.	17.9	-3.3	.	10.7	-14.8	.	.	.	6.2
Cc1ccn2c(=O)c(C(=O)NCCN3CCOCC3)c(O)nc2c1	i	-11.4	3.8	0.1	1.9	-13.1	5.4	14.4	-1.3	-0.8
O=C(NCc1ccccc1)c1ccc(-c2ccc(F)cc2)o1	.	-4.2	0.8	.	-6.9	-23.0	.	.	.	-5.0
O=c1[nH][nH]c(=O)c2cc(N3CCCC3)ccc12	i	-15.2	-4.4	1.6	-3.9	61.3	5.2	0.3	-2.4	3.4
c1ccc(CCCNCC2COc3ccccc3O2)cc1 (stereo not drawn)	i	-1.1	-2.0	0.4	-43.4	-0.5	10.8	8.1	0.8	-1.2
COc1ccc(-c2nnn(CC(=O)NC(=O)NC3CCCCC3)n2)cc1OC	i	.	-3.9	2.0	.	0.4	7.7	4.4	-0.7	.
O=C(N/N=C/c1ccc([N+](=O)[O-])o1)c1cccc(S(=O)(=O)N2CCOCC2)c1	i	28.0	-10.5	-0.9	8.2	-19.6	21.6	2.8	3.9	-2.8
Cc1cccc(NC(=O)C2CC(=O)NC(Nc3nc4ccccc4s3)=N2)c1 (stereo not drawn)	i	1.8	-6.8	-0.5	7.0	-2.6	20.9	21.0	-6.2	0.1
COCCNC(=O)CSc1nc2ccccc2c(=O)n1CC1CCCO1 (stereo not drawn)	.	-12.0	-0.2	.	11.0	-12.6	.	.	.	-4.1
Cc1ccccc1CSc1nnc(-c2ccccn2)n1C	i	-23.1	-1.0	3.8	17.9	-2.0	-20.9*	-2.0*	5.7*	4.0
O=C(COC(=O)C1(c2ccc(F)cc2)CCCC1)N1CCN(C(=O)c2ccco2)CC1	.	0.7	-3.4	.	-1.3	-30.2	.	.	.	3.7
O=[N+]([O-])c1ccccc1S(=O)(=O)N1CCN(Cc2cc3c(cc2O)OCO3)CC1	i	-28.9	6.1	5.5	8.7	-58.6	19.7	3.9	1.2	-1.0
O=C(COC(=O)c1ccccc1F)Nc1cc(S(=O)(=O)N2CCOCC2)ccc1N1CCCC1	i	-8.6	-4.3	-1.7	-12.4	3.0	-19.9	-17.4	-2.1	-0.5

Continued:
SMILES	FGF22 binding	T cruzi inh	Beta cell apopt	MLL AF4-AF9 inh	Calb FLC	ALR H2O2 inh	rRNA inh HTS	rRNA inh HTS OD600	rRNA inh HTS RFP	RanGTP-Impb inh
Cc1ccc(CNC(=O)Cn2cccc2)cc1	i	-5.6	-1.7	1.8	3.7	-4.1	1.3	7.5	0.6	-1.6
O=C(Nc1ccccc1)C1CCN(S(=O)(=O)c2ccc3c(c2)OCCO3)CC1	i	4.7	1.3	1.3	-6.9	-8.6	3.3	9.2	-1.9	5.3
COc1ccccc1C(=O)Nc1nnc(-c2ccc(Cl)cc2)o1	i	-4.9	0.8	-2.4	-1.9	2.4	-28.9	-49.7	-8.7	6.9
CC(C)CN(C(=O)COC(=O)CCCc1nc2ccccc2s1)c1c(N)n(Cc2ccccc2)c(=O)[nH]c1=O	.	-4.5	-2.7	-1.6	1.8	0.2	9.3	8.9	0.4	12.2
COc1cc(C(=O)Nc2nc3ccc4nc(C)sc4c3s2)cc(OC)c1OC	.	-38.9	7.7	.	1.0	-2.1	.	.	.	-6.3
CCN(CC)CCn1c2ccc(F)cc2c2nc(C)sc21	.	31.4	15.8	.	14.4	0.7	.	.	.	-6.7
C=CCCCCCCCCc1nc(SCC(C)=O)n[nH]1	i	14.2	-3.7	-1.5	-22.8	3.6	0.3	-3.3	3.0	3.7
COC(=O)C(=O)C/C(=N/Nc1ncnc2ccccc12)c1ccc(Cl)cc1	i	-5.2	2.3	2.4	-0.3	13.4	-4.1	-5.7	59.6	1.6
Cc1sc(NC(=O)C2CCCCC2)c(C#N)c1-c1ccccc1	.	37.4	-1.7	.	4.8	9.2	.	.	.	0.7
O=C(CSc1n[nH]c(-c2ccccc2O)n1)N1CCCc2ccccc21	.	-9.1	-3.0	.	44.3	15.3	.	.	.	6.1
Cc1ccc(CNC(=O)c2ccc(-n3cccc3)cc2)cc1	i	-17.2	.	-1.6	-20.8	.	11.4	13.1	7.2	4.1
Cc1ccc2nc(NC(=O)CN3C(=O)NC4(CCCCC4)C3=O)sc2c1	i	4.3	-4.6	-0.3	4.9	-5.7	1.4	4.3	-1.7	0.2
Cc1ccc2c3c1C1(C(=O)N3C(C)(C)CC2C)C(C#N)=C(N)Oc2cc(O)ccc21 (stereo not drawn)	.	-4.9	-6.7	.	-1.2	-12.5	.	.	.	-0.9

Screening data as filed in PubChem.
